Vaccinia Venus = vaccinia inhibition (Venus reporter) | Potency, µM (series often up to 36.5 µM), for the others: top-dose activity change, negative = inhibition, most hits filed as inhibitors | Vaccinia virus Venus reporter expression, fluorescence | 330,000 compounds, 0.46% hits; active means well fitted inhibition curve with a large enough effect; inconclusive means small, poorly fitted or top-dose-only effect; inactive means no such curve, though single readings can be large or run the other way; tested in A549 cells; note: nearly all actives have a fitted effect of over 30% in size; inactives centre near -10
Vaccinia mCherry = inhibitors of vaccinia virus infection (mCherry reporter signal) | 310,000 compounds, 0.63% hits | Potency, µM (highest dose often 36.5 µM), for inactives: at the highest dose activity change, negative = inhibition, usual class: inhibitors | Vaccinia virus mCherry reporter infection, fluorescence; about a quarter of the inactives have no number; active = well fitted inhibition curve with a large enough effect; inconclusive = small, poorly fitted or top-dose-only effect; inactive = no such curve, though single readings can be large or run the other way; tested in A549 cells; note: nearly all actives have a fitted effect of over 35% in size; inactives centre near -10
An asterisk follows results filed as active; i = inactive; ? = inconclusive; . = no result given; & = joins results of further samples; ! = a repeat was not active; [ ] = dose if it differs, or a comment. % is set by controls: 0 for no effect and ±100 for the full control effect; potency is the fitted concentration of half-maximal effect. Compounds as they come; any-hit rate near 0.86%.

Results follow in this order: Vaccinia Venus	Vaccinia mCherry
- Cc1cnc(C)c(Nc2nc(C(N)Cc3ccc(F)cc3)cs2)n1 (stereo not given)
→ -2.0%	-10.0%
- COc1ccccc1N1CCN(CC(=O)Nc2ccc(C)c(F)c2)CC1
→ ?	.
- Cc1ccccc1NC(=S)c1nc2ccccc2[nH]1
→ -11.7%	-20.1%
- O=C(OCC(=O)N1CCCc2ccccc21)c1ccc(Br)o1
→ -11.7%	.
- COC(=O)c1sc(S(=O)(=O)Nc2c(C)nn(C)c2C)c(C(=O)OC)c1C
→ -4.4%	i
- CO/N=C(/C)CCS(=O)(=O)c1ccccc1
→ -9.2%	-23.1%
- Cc1cnc(CNc2nc(-c3ccc4c(c3)OCO4)nc3ccccc23)cn1
→ -17.0%	-18.4%
- COc1ccc(NC(=O)Nc2ccccc2C)c(OC)c1
→ -22.1%	-14.8%[1.46 µM]
- O=C(c1ccc(-c2ccc([N+](=O)[O-])cc2Cl)o1)N1CCOCC1
→ -5.4%	-1.2%
- Cc1cc(NC(=O)CSc2ncnc3c2cnn3-c2cccc(Cl)c2)no1
→ -6.8%	-17.0%
- O=C(O)Cc1cccc(=O)c(O)c1C(=O)O
→ -7.7%	-8.0%
- CNC(=O)CSc1nnc(CCc2ccccc2)n1-c1ccccc1
→ -11.7%	i
- CCn1nc(C)c(NC(=O)CSc2nnc(-c3ccco3)n2C)c1C
→ -9.4%	i
- CCC1(CC)Cc2ccccc2-c2[nH]c(=S)[nH]c(=O)c21
→ -5.9%	?
- CCCCCCCN1C=CC(=O)CC1
→ 3.6%	-3.8%
- COC(=O)Nc1sc2c(c1C(N)=O)CCC(C)C2 (stereo not given)
→ -7.1%	-24.5%
- COC(=O)c1ccc2c(=O)n(-c3ccccc3)c(SCN3C(=O)c4ccccc4C3=O)nc2c1
→ -3.6%	-10.6%
- Cc1ccc(SC[C@H](C)CN2CC[C@H](C(C)(C)C)CCC2=O)cc1
→ -0.9%&-19.6%	-23.0%
- C=CC#CC1(O)CC(C)[N+](C)(C)CC1C (stereo not given)
→ -17.1%	-20.4%
- O=c1cc(-c2cccc(F)c2)oc2ccccc12
→ -2.0%	1.4%
- COc1cc2nc(SCc3cccc(Cl)c3)n3nc(CCn4nc(C)cc4C)nc3c2cc1OC
→ 2.5%	-17.2%
- CCOC(=O)c1ccccc1NC(=O)Cn1ncc2c([nH]c3ccccc32)c1=O
→ -19.2%	-22.7%
- Cc1ccc(S(=O)(=O)Nc2cccc(C(=O)NCC(c3ccccc3)N(C)C)c2)cc1F (stereo not given)
→ -12.2%	?
- COc1cccc(C(=O)N(Cc2ccc3c(c2)OCO3)Cc2nc3ccccc3c(=O)[nH]2)c1
→ -3.0%	i
- CCC(=O)N1CCc2cc(Br)cc(S(=O)(=O)NCCc3ccc(C)cc3)c21
→ -10.5%	-9.7%
- CCOc1ccc(-c2nc3c(c(SCC(=O)Nc4ccccc4C)n2)Cc2ccccc2O3)cc1
→ -11.3%	-10.6%
- O=C(NCC1CCCO1)Nc1cccc(Cl)c1 (stereo not given)
→ -15.9%	-2.9%
- Cc1nc(SCc2c(F)cccc2Cl)n[nH]1
→ -4.0%	-16.8%
- c1c[nH]c(CN2CCN(Cc3ncc[nH]3)CC2)n1
→ -7.8%	i
- CN(CC(=O)Nc1cccc(S(=O)(=O)N2CCCC2)c1)CC(=O)Nc1ccc(F)c(F)c1F
→ -21.9%	-18.9%
- CCN(CC)S(=O)(=O)c1cc(NC(=O)C(C)N2CCc3ccccc32)ccc1C (stereo not given)
→ -5.9%	?
- Cn1cc(Cl)c(C(=O)NC2CCCC2)n1
→ 2.3%	i
- Oc1ccccc1N=Nc1nc(-c2ccccc2)c(-c2ccccc2)[nH]1
→ ?	?
- CCc1nnc(NC(=O)CSc2nc3[nH]ncc3c(=O)[nH]2)s1
→ 14.2%	i
- CCOc1ccc(NS(=O)(=O)c2ccc3[nH]cc(C(=O)N(C)Cc4ccccc4)c(=O)c3c2)cc1
→ -5.4%	-8.1%
- CC(=O)N1CCCC1c1nc2ccccc2n1Cc1ccccc1F (stereo not given)
→ -3.0%	-9.0%
- O=C(CCNC(=O)Cn1ccc2ccccc2c1=O)NCCN1CCc2ccccc2C1
→ -19.1%	-7.5%
- OC[C@@H]1CN(Cc2ccncc2)C[C@H](n2cnc3c(NCc4ccco4)ncnc32)O1
→ 14.5%	3.3%
- COc1ccc(OC)c(NC(=O)CSc2n[nH]c(-c3ccccc3Cl)n2)c1
→ -3.7%	-10.3%
- CCn1cnc2c([N+](=O)[O-])c(NS(=O)(=O)c3ccc(C)cc3)ccc21
→ -3.7%	i
- O=C1C(Br)=Cc2cccc3cccc1c23
→ 119.0%[activator]	105.2%[activator]
- CN1CCN(CCCN2c3ccccc3Sc3ccc(Cl)cc32)CC1
→ 11.2µM*	11.2µM*!
- CC1CC(C)CN(CCCNC(=O)CC2Oc3ccccc3NC2=O)C1 (stereo not given)
→ -11.0%	-4.4%
- CCN(CC)c1ccc2cc(-c3nc(-c4cc5ccccc5oc4=O)cs3)c(=O)oc2c1
→ 2.0%	?
- O=[N+]([O-])c1nn(-c2ccc3c(c2)OCCO3)n(O)c1=NCCC1=CCCCC1
→ -2.8%	i
- COC(=O)C(C)Sc1nnc(Cc2cc(=O)[nH]c(=O)[nH]2)n1-c1ccc(OC)cc1 (stereo not given)
→ -8.2%	0.1%
- CCOc1ccccc1-n1nnnc1SC(C)C(=O)OC (stereo not given)
→ -11.1%	-11.7%
- COc1ccccc1C=NN=Cc1ccccc1O
→ -10.5%	-3.4%
- CCCOc1cccc(C(=O)NCCCNC(=O)c2cccnc2)c1
→ -7.5%	i
- CCCCc1nnc(NC(=O)c2oc3ccccc3c2C)s1
→ -12.9%	i
- CCN(c1ccccc1)S(=O)(=O)c1ccc(C(C(=O)OC)C(=O)OC)c([N+](=O)[O-])c1
→ -3.6%	-15.0%
- O=c1oc(CCO)cc2ccccc12
→ -3.6%	-12.6%
- COc1ccc(C(OC(=O)c2ccco2)C(=O)NC2CCCCC2)cc1OC (stereo not given)
→ -7.6%	-5.4%
- COc1ccccc1CNC(=O)N1CCN(c2ccccc2)CC1
→ -12.2%	-28.8%
- COc1ccc(C2C=C(c3ccc(Cl)c(Cl)c3)Nc3ncnn32)cc1 (stereo not given)
→ -10.8%	-26.7%
- COc1ccccc1NC(=S)N/N=C/c1cccc(C)c1
→ -28.7%	?
- O=C(CCc1ccccc1)Nc1cccc([N+](=O)[O-])c1
→ -18.6%	i
- O=C(O)CNS(=O)(=O)c1ccc2c(c1)CCCC2
→ -8.1%	-1.2%
- O=C(O)CNC(=O)C1(NC(=O)OCc2ccccc2)CCCC1
→ -16.7%	-13.4%
- COc1cc(C=O)ccc1OCCCOc1ccccc1[N+](=O)[O-]
→ 1.7%	-13.9%

Carrying on:
Results follow in this order: Vaccinia Venus	Vaccinia mCherry
- CN(Cc1ccccc1)C(=O)C1CCN(S(=O)(=O)c2ccc3c(c2)oc(=O)n3C)CC1
→ -5.3%	-2.1%
- Cc1nn(S(=O)(=O)c2ccccc2)c(C)c1Sc1ccc([N+](=O)[O-])cc1
→ -6.5%	-0.9%
- O=C(CC(=O)N/N=C\c1ccc(F)cc1)NCCc1ccccc1
→ 1.6%	-10.8%
- C=CCC1S/C(=N/N=C/c2cccs2)NC1=O (stereo not given)
→ -16.1%	-2.8%
- O=C(COc1ccc(Cl)cc1)Nc1ccc(-c2nc3ccccc3s2)c(O)c1
→ 0.7%	-8.0%
- O=C(N/N=C/c1ccco1)c1cccc(S(=O)(=O)Nc2ccccc2Cl)c1
→ -6.2%	-11.4%
- COc1ccc(/C=C/C(=O)Nc2ccc(S(=O)(=O)Nc3onc(C)c3C)cc2)cc1OC
→ -11.9%	i
- CCOC(=O)c1c(C)[nH]c(C(=O)CSc2nnc(Nc3ccccc3F)s2)c1C
→ -9.0%	-6.5%
- N/C(=N\c1nc2ccccc2o1)NC(=O)c1ccccc1
→ -23.0%	-10.0%
- O=C(Cn1cc(Cl)ccc1=O)c1ccc(Cl)cc1
→ -5.7%	-11.6%
- O=C(CSc1nnc(-c2ccccc2)c(-c2ccccc2)n1)Nc1ncc(Cl)cc1Cl
→ -6.6%	-10.4%
- CCCn1c(=O)c(C(=O)Nc2cccc(C)n2)c(O)c2ccccc21
→ -5.7%	i
- CN(C)S(=O)(=O)Oc1ccccc1C(=O)Nc1ccc(F)cc1F
→ -5.2%	i
- O=C(Nc1ccccc1NC(=O)C1CCCO1)c1ccco1 (stereo not given)
→ -6.7%	i
- C=CCOCCN1C(=O)C2C3C=CC(C2C1=O)C1C2C(=O)N(CCOCC=C)C(=O)C2C31 (stereo not given)
→ -3.9%	-19.4%
- CCCCNC(=O)C1(C)CCN1C(=O)c1cccnc1Oc1ccccc1 (stereo not given)
→ -9.1%	23.0%
- COc1cccc(C(=O)/C=C/Nc2ccc(S(=O)(=O)Nc3ncccn3)cc2)c1
→ -11.1%	i
- O=[N+]([O-])c1ccc2c(c1)[nH]c(=S)n2-c1ccccc1
→ -9.7%	2.3%
- CCOc1ccc(-c2ccc(SCC(=O)NCC3CCCO3)nn2)cc1 (stereo not given)
→ -13.9%	i
- S=C(NCc1ccccc1)NCc1ccc(Cl)cc1
→ -15.1%	-9.8%

Complete entries, looked up by structure:
`O=C(CSc1nnc(-c2ccccc2)c(-c2ccccc2)n1)Nc1ncc(Cl)cc1Cl` reads Vaccinia Venus: -6.6%; Vaccinia mCherry: -10.4%
`CCCCNC(=O)C1(C)CCN1C(=O)c1cccnc1Oc1ccccc1` (stereo not given) reads Vaccinia Venus: -9.1%; Vaccinia mCherry: 23.0%

(more compounds)
Results follow in this order: Vaccinia Venus	Vaccinia mCherry
- Cc1oc2cc3oc(=O)c(CCC(=O)NC4CC4)c(C)c3cc2c1C
→ -8.0%	-6.1%
- Cc1ccc2nc(N3CCN(C(=O)c4cccs4)CC3)c(C#N)cc2c1
→ -3.2%	i
- CC(=O)c1cccc(NS(=O)(=O)c2ccc(N/C=C/C(=O)c3ccc(F)cc3)cc2)c1
→ -27.1%	?
- CC(=O)c1cccc(N2C(=O)CC(N3CCN(S(=O)(=O)c4ccccc4F)CC3)C2=O)c1 (stereo not given)
→ -7.3%	i
- C[C@@H](C(=O)N1CCNCC1)n1cc(CCCN=C(N)N)nn1
→ -9.2%	-12.7%
- CCCCN1C(C(=O)c2ccccc2)=C(OC(=O)CC)c2ccccc2S1(=O)=O
→ ?	?
- CC12CCC(=O)N1C(C(=O)Nc1ccc(Cl)c(S(=O)(=O)N3CCCCC3)c1)CS2 (stereo not given)
→ -16.1%	-1.8%
- CCOC(=O)Cc1c(C)nc2c(-c3ccc(Cl)cc3)c(C)nn2c1C
→ -4.8%	-2.4%
- O=[N+]([O-])c1ccc(O)c(/C=N/Nc2ccccn2)c1
→ 5.01µM*	1.78µM*
- CCCN(CC(=O)Nc1ccccc1C)C(=O)c1cccc(S(=O)(=O)N2CCN(c3ccccc3)CC2)c1
→ -17.3%	-5.8%
- O=C(Cc1ccccc1)NNC(=O)C1CC=CCC1 (stereo not given)
→ -7.1%	-21.3%
- Cc1nn(-c2ccccc2)c2sc(C(=O)N(CC(=O)NC(C)(C)C)Cc3ccco3)cc12
→ ?	.
- COc1ccc(NS(=O)(=O)c2ccc(NC(=S)NC(=O)c3cccc(F)c3)cc2)nn1
→ -3.5%	-14.2%
- CC1=CCC[C@@H]2[C@@](C)(CC/C(C)=C/C(=O)O)[C@H](C)CC[C@@]12C
→ -16.1%	i
- CN(C)S(=O)(=O)c1ccc(NC(=O)N2CCOCC2)cc1
→ -17.1%	i
- CC(NC(=O)C1CC12CCC2)c1ccccc1 (stereo not given)
→ -0.1%	i
- Cc1ccc(S(=O)(=O)c2c(C)nn(C(C)(C)C)c2OC(=O)c2cccs2)cc1
→ ?	.
- O=C(NCC1CCCO1)c1cccc(S(=O)(=O)Nc2ccccc2Cl)c1 (stereo not given)
→ -3.6%	i
- NC(=O)CSc1nc2ccccc2c(=O)n1-c1ccccc1
→ -15.2%	-9.4%
- COc1ccc(C(=O)N(C)C2CCCN(Cc3ccccc3F)C2)cc1C (stereo not given)
→ -18.7%	?
- COc1ccc2oc(-c3cccc(NC(=O)CSc4ccc(Cl)cc4)c3)nc2c1
→ -25.1%	-3.2%
- COC(=O)c1cc(N=Nc2c(C)[nH]c3ccccc23)cc(C(=O)OC)c1
→ 0.0%[7.34 µM]	i[7.34 µM]
- COc1cccc(C=NNC(=O)C(C)SC(C)C(=O)NN=Cc2cccc(OC)c2)c1 (stereo not given)
→ 17.3%	-12.7%
- O=[N+]([O-])c1cc(-c2ccn[nH]2)ccc1Cl
→ -18.5%	-5.3%
- Cc1ccc(S(=O)(=O)N2CCCN(S(=O)(=O)c3ccc(C)c(C)c3)CC2)cc1C
→ -1.5%	-11.0%
- Cc1ccc(C(=O)NC(=S)Nc2cc(C(F)(F)F)ccc2Cl)cc1
→ -15.9%	.
- C/C(CC(=O)Nc1ccc(C)c(Cl)c1)=N\NC(=O)Cc1cccs1
→ -17.3%	i
- Cc1ccc(NCc2cccnc2)cc1
→ -4.8%	.
- CC(C)(C)CNC(=O)c1cccc2c1C(=O)c1ccc(-c3cc4ccccc4o3)cc1S2(=O)=O
→ -21.4%	i
- CCC(C)N(C(=O)COC(=O)CNC(=O)c1ccccc1F)C1CCS(=O)(=O)C1 (stereo not given)
→ -1.2%	-12.3%
- CCn1cc(S(=O)(=O)c2cc(C)cc(C)c2)c(=O)c2cc(F)c(N3CCCCC3)cc21
→ ?	-19.4%
- COc1cc2c(cc1CNC[C@H]1O[C@@H](n3ccc(N)nc3=O)[C@H](O)[C@@H]1O)OCO2
→ -11.1%	i
- CC(=O)NC(Cc1ccc(I)cc1)C(=O)NCC(N)C(=O)c1ccccc1 (stereo not given)
→ -19.2%	-3.5%

High-throughput results (PubChem BioAssay)
